Cruzain noTriton – qHTS Assay for Promiscuous and Specific Inhibitors of Cruzain (without detergent); purified cruzain, Z-FR-AMC fluorescence, no detergent; Potency, µM, for the others: max response, negative = inhibition, actives largely listed as inhibitors; 200,000 compounds, 2.3% hits;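 further: plate controls were enzyme without inhibitor for no effect and buffer without enzyme for full effect; nearly all actives have a fitted effect of over 40% in size; top concentration of the series not given in the record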
Target sequence (P25779 123-467 limits assumed): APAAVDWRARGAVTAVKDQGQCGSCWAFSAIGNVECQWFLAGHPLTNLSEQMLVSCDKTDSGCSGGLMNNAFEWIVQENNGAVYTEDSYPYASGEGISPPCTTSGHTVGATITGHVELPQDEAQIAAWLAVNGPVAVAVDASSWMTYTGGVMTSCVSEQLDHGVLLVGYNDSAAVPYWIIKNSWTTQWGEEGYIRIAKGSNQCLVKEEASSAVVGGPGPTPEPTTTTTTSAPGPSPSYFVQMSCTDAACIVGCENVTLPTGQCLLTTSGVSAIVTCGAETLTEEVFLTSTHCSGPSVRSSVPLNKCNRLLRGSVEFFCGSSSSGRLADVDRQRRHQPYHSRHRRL
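Detergent-free condition (0.00005% Triton X-100) in acetate buffer pH 5.5 with DTT. 1.5 nM enzyme and compound were pre-mixed 15 min, then 2 uM Z-FR-AMC substrate added; reaction progress from fluorescence change between first and third reads (60 s).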
StopGo reporter – High Throughput Screening for Foot and Mouth Disease Virus Antivirals; 410,000 compounds, 1.2% hits; Potency, µM (doses to about 57.9 µM), inactives show at the highest dose signal change, negative = less light; human cells with a luciferase reporter of 2A StopGo recoding; control for the full effect not named in the record; active = well fitted falling curve with a large enough effect; inconclusive = small, poorly fitted or top-dose-only effect; inactive = no such curve, though single readings can be large or run the other way; tested in HEK293T cells; further: on the % scale 0 is the no-effect control and ±100 the full control effect; nearly all actives have a fitted effect of over 45% in size; luciferase light after 4 h
RE007 growth inh – qHTS Assay for Inhibitors of the HIV-1 protein Vpr; S. pombe RE007 Vpr strain, BacTiter-Glo ATP luminescence, 24 h; control for the full effect not named in the record; Potency, µM (doses to about 92.2 µM), inactives show at the highest dose activity change, negative = less growth; 360,000 compounds, 0.21% hits; AID 651644, 2012; active = well fitted falling curve with a large enough effect; inconclusive = small, poorly fitted or top-dose-only effect; inactive = no such curve, though single readings can be large or run the other way;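 further: on the % scale 0 is the no-effect control and ±100 the full control effect; nearly all actives have a fitted effect of over 50% in size; the assay follows cell death caused by Vpr and the record does not say whether a fall means rescue or toxicity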
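Fission yeast RE007 carrying one integrated HIV-1 vpr copy, seeded at OD 0.01 in PMG+AL medium with 23 nL pinned compound. Grown 24 h at 30 degrees; viability read by BacTiter-Glo luminescence after 5 min.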
NS1 inh – qHTS Assay for Inhibitors of Influenza NS1 Protein Function | AID 2326, 2010 | 270,000 compounds, 0.4% hits | S. cerevisiae slowed by influenza A NS1, growth recovery by OD600 | Potency, µM (series often up to 46.1 µM), for the others: at the highest dose activity, positive = more growth; active means well fitted rising curve with a large enough effect; inconclusive means small, poorly fitted or top-dose-only effect; inactive means no such curve, though single readings can be large or run the other way; further: nearly all actives have a fitted effect of over 50% in size
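Growth recovery, yeast-based: influenza A NS1 expressed in S. cerevisiae causes slow growth, and suppressors are detected by OD600. The parent strain without NS1 is used as positive control.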
SARS PLP yeast – qHTS of Yeast-based Assay for SARS-CoV PLP; S. cerevisiae expressing SARS-CoV PLpro, growth rescue; control for the full effect not named in the record; Potency, µM (series often up to 32.9 µM), without a hit: at the highest dose activity, positive = growth rescue; 330,000 compounds, 0.19% hits; active means well fitted rising curve with a large enough effect; inconclusive means small, poorly fitted or top-dose-only effect; inactive means no such curve, though single readings can be large or run the other way; further: 0% is about no effect; nearly all actives have a fitted effect of over 55% in size; growth read by luminescence after 48 h
Lassa entry inh – qHTS for Inhibitors of binding or entry into cells for Lassa Virus. Lassa virus pseudotype entry inhibition, cell reporter; control for the full effect not named in the record. Potency, µM (highest dose often 37.9 µM), for the others: at the top dose activity change, negative = inhibition, hits mostly inhibitors. 300,000 compounds, 1.2% hits; active means well fitted inhibition curve with a large enough effect; inconclusive means small, poorly fitted or top-dose-only effect, or effect the other way; inactive means flat fitted curve, though single readings scatter; tested in HEK293 cells; further: on the % scale 0 is the no-effect control and ±100 the full control effect; nearly all actives have a fitted effect of over 50% in size; luciferase read-out
Marburg entry inh – qHTS for inhibitors of binding or entry into cells for Marburg Virus. Marburg virus pseudotyped entry inhibition, cell reporter; control for the full effect not named in the record; about a third of the inactives were read at about 46 µM. Potency, µM (series often up to 37.8 µM), for inactives: at the highest dose activity change, negative = inhibition, most hits filed as inhibitors. 300,000 compounds, 1.8% hits; active = well fitted inhibition curve with a large enough effect; inconclusive = small, poorly fitted or top-dose-only effect, or effect the other way; inactive = flat fitted curve, though single readings scatter; tested in HEK293 cells; about a fifth of its hits are not listed in these tables; further: on the % scale 0 is the no-effect control and ±100 the full control effect; luciferase read-out
Cruzain inh Det – qHTS Assay for Promiscuous and Specific Inhibitors of Cruzain (with detergent). Potency, µM, for inactives: max response, negative = inhibition, most hits filed as inhibitors. 200,000 compounds, 0.43% hits. Cruzipain (Trypanosoma cruzi), P25779. AID 1478, 2009. purified cruzain, Z-FR-AMC fluorescence, 0.01% Triton;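 further: plate controls were neutral wells for no effect and buffer without enzyme for full effect; nearly all actives have a fitted effect of over 40% in size; top concentration of the series not given in the record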
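Cruzain (1.5 nM) preincubated 15 min at RT with compound in 100 mM sodium acetate pH 5.5, 5 mM DTT, 0.01% Triton X-100. Reaction started with 2 uM Z-FR-AMC; AMC fluorescence (ex 360/em 450 nm) change over 60 s gave rate.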
An asterisk follows results filed as active; & = joins results of further samples; [ ] = remark or other dose. Unless noted, the call rests on the fitted dose curve; in most records, active means well fitted curve in the direction sought with a large enough effect; inconclusive means small, poorly fitted or top-dose-only effect, or another doubt; inactive means no such curve, though single readings can be large; an effect the other way counts as inactive or inconclusive. Potency means the concentration at half of the fitted maximal effect.

How did Nc1ccc(CCNc2ncnc3c2ncn3C2OC(CO)C(O)C2O)cc1 (stereo not given) do in these assays?
Cruzain noTriton: -6.2%; StopGo reporter: -5.6%; NS1 inh: -1.4%; Lassa entry inh: 1.8%; Marburg entry inh: -6.2%&-6.2%&-6.2%&-16.2%&-6.2%; Cruzain inh Det: 3.8%

How did CCOC(=O)C1(CC2CCCCO2)CCN(C(=O)Nc2ccc(C)c(C)c2)CC1 (stereo not given) do in these assays?
StopGo reporter: 13.3%; RE007 growth inh: 27.1%; NS1 inh: 0.5%; SARS PLP yeast: -1.2%; Lassa entry inh: 11.0%; Marburg entry inh: 2.7%[46.1 µM]

How did CCCCCC(=O)N1CC2(CC(c3cccc(NC(=O)COc4ccc(Cl)cc4)c3)=NO2)C[C@@H]1C(N)=O (stereo not given in full) do in these assays?
StopGo reporter: -74.5%; RE007 growth inh: -9.7%; NS1 inh: 0.0%; SARS PLP yeast: 4.9%

Results for CCOc1ccccc1NC(=O)NCCN1CCCCC1 ?
StopGo reporter: -19.7%; RE007 growth inh: -5.0%; NS1 inh: 0.1%; SARS PLP yeast: 3.8%; Lassa entry inh: 1.2%; Marburg entry inh: -5.5%

Results for Cc1ccc(C(=O)Cc2nnc(C)s2)cc1 ?
Cruzain noTriton: -3.2%; StopGo reporter: 0.0%; RE007 growth inh: -18.1%; NS1 inh: 10.3%; SARS PLP yeast: -13.1%; Lassa entry inh: inconclusive; Marburg entry inh: 3.0%; Cruzain inh Det: -2.4%

How did COc1cccc(Cn2cccc(NC(=O)NC3CCCCC3)c2=O)c1 do in these assays?
Cruzain noTriton: -11.7%; StopGo reporter: -26.5%; RE007 growth inh: -19.8%; NS1 inh: -13.2%; SARS PLP yeast: -1.4%; Lassa entry inh: inconclusive; Marburg entry inh: -7.9%[46.1 µM]; Cruzain inh Det: -11.3%

How did CCCCc1nnc(NC(=O)CN(C)S(=O)(=O)c2ccc(C)cc2)s1 do in these assays?
StopGo reporter: -14.0%; RE007 growth inh: -2.5%; NS1 inh: 17.9%; SARS PLP yeast: 1.3%; Lassa entry inh: 6.2%[46.1 µM]; Marburg entry inh: 1.0%[46.1 µM]

Results for CCCCNCc1cccn1-c1ccccc1 ?
Cruzain noTriton: 6.5%; StopGo reporter: -11.1%; RE007 growth inh: -15.6%; NS1 inh: 3.1%; SARS PLP yeast: -0.5%; Lassa entry inh: -18.3%; Marburg entry inh: -1.4%; Cruzain inh Det: 0.1%

What do the screens show for `COc1ccc(CCNC(=O)CN(c2ccccc2OC)S(C)(=O)=O)cc1`?
Cruzain noTriton: 5.9%; StopGo reporter: 2.0%; RE007 growth inh: -2.2%; NS1 inh: -4.5%; SARS PLP yeast: 5.7%; Lassa entry inh: 3.1%; Marburg entry inh: 0.2%&0.2%; Cruzain inh Det: -1.0%

Results for CCOc1ccc(-c2nnc(SCC(=O)NC3CCCC3)nc2-c2ccc(OCC)c(OC)c2)cc1OC ?
Cruzain noTriton: -11.3%; StopGo reporter: 23.0%; Lassa entry inh: -16.2%[46.1 µM]; Cruzain inh Det: -0.1%

How did COC(=O)c1c(Oc2ccc(C(C)=O)cc2)nnc(-c2ccccc2)c1-c1ccccc1 do in these assays?
Cruzain noTriton: -11.4%; StopGo reporter: inconclusive; Lassa entry inh: inconclusive; Marburg entry inh: 6.31µM*; Cruzain inh Det: -7.5%

What do the screens show for `COc1ccc(C(=O)C2CCCN(C(=O)c3ccc4nccnc4c3)C2)c(C)c1` (stereo not given)?
StopGo reporter: -18.6%; RE007 growth inh: 6.9%; NS1 inh: -4.9%; SARS PLP yeast: -1.1%

Results for COC1OC2COC(c3ccccc3)OC2C(OC(C)=O)C1OC(C)=O (stereo not given) ?
StopGo reporter: -13.1%; RE007 growth inh: -10.0%; Lassa entry inh: inconclusive; Marburg entry inh: 16.0%

Results for O=C1c2ccccc2C(O)N1Cc1ccccc1 (stereo not given) ?
Cruzain noTriton: 1.3%; StopGo reporter: 10.7%; RE007 growth inh: 19.1%; NS1 inh: -5.9%; SARS PLP yeast: 9.6%; Lassa entry inh: 6.5%; Marburg entry inh: 15.2%; Cruzain inh Det: -0.6%

Results for CCOC(=O)C(NCc1ccco1)(NC(=O)c1ccccc1)C(F)(F)F (stereo not given) ?
Cruzain noTriton: -7.5%; StopGo reporter: -3.0%; RE007 growth inh: 8.8%; NS1 inh: 6.9%; SARS PLP yeast: 9.9%; Lassa entry inh: 1.3%; Marburg entry inh: 26.3%; Cruzain inh Det: -1.0%

Results for CCOC(=O)c1c2c(n(Cc3ccccc3)c1C)C(=O)C(=O)c1ccccc1-2 ?
StopGo reporter: 20µM*; RE007 growth inh: -19.5%; Lassa entry inh: inconclusive; Marburg entry inh: 5.62µM*

What do the screens show for `CCOc1ccc(-c2cc(CCCC(=O)NCCCOC)no2)cc1`?
Cruzain noTriton: 9.0%; StopGo reporter: -16.0%; RE007 growth inh: 18.0%; NS1 inh: -10.5%; SARS PLP yeast: 4.9%; Lassa entry inh: inconclusive; Marburg entry inh: inconclusive; Cruzain inh Det: -1.3%

How did Cc1ccccc1NCN1C(=O)C2C3C=CC(C3)C2C1=O (stereo not given) do in these assays?
Cruzain noTriton: 7.1%; StopGo reporter: 1.5%; RE007 growth inh: 2.2%; NS1 inh: -1.5%; SARS PLP yeast: 4.1%; Lassa entry inh: 3.1%; Marburg entry inh: 17.7%; Cruzain inh Det: 2.3%

How did COc1cccc(C(=O)NNC(=O)C(=O)Nc2cccc(Cl)c2C)c1 do in these assays?
StopGo reporter: 18.1%; RE007 growth inh: -13.0%; NS1 inh: -57.2%; SARS PLP yeast: -4.8%; Lassa entry inh: 16.6%[46.1 µM]; Marburg entry inh: inconclusive

Results for COc1ccc(CN(C)C(=O)c2cnc(C)cn2)c(OC)c1OC ?
StopGo reporter: 4.2%; RE007 growth inh: 3.3%; NS1 inh: 1.7%; SARS PLP yeast: -1.6%

What do the screens show for `Cc1ccc(CS(=O)(=O)Cc2ccc(C(=O)NCCCN3CC(C)CC(C)C3)o2)cc1` (stereo not given)?
StopGo reporter: 8.5%; RE007 growth inh: -2.0%; NS1 inh: -13.7%; SARS PLP yeast: 5.9%

How did COc1ccc(CCN(Cc2nc3ccccc3c(=O)[nH]2)C(=O)c2ccco2)cc1 do in these assays?
Cruzain noTriton: -1.5%; StopGo reporter: -4.1%; RE007 growth inh: -10.2%; NS1 inh: -12.1%; SARS PLP yeast: -0.5%; Lassa entry inh: 0.7%; Marburg entry inh: inconclusive; Cruzain inh Det: 7.8%

What do the screens show for `O=c1cnn(Cc2c(Cl)cccc2Cl)c2ccccc12`?
StopGo reporter: 54.1%[activator]; RE007 growth inh: 8.4%; NS1 inh: -10.3%; SARS PLP yeast: -13.2%; Lassa entry inh: -24.2%[46.1 µM]; Marburg entry inh: inconclusive

How did COc1ccccc1NC(CC(=O)c1ccccc1)C(=O)OCC(=O)c1ccc(F)cc1 (stereo not given) do in these assays?
Cruzain noTriton: -5.9%; StopGo reporter: 50.2%[activator]; RE007 growth inh: -13.0%; NS1 inh: 1.5%; SARS PLP yeast: -40.5%; Lassa entry inh: -9.8%; Marburg entry inh: inconclusive; Cruzain inh Det: -5.4%

What do the screens show for `CC1CCc2onc(C(=O)N3CCN(c4ccc(Cl)cc4)CC3)c2C1` (stereo not given)?
Cruzain noTriton: 3.3%; StopGo reporter: -25.2%; Lassa entry inh: -26.3%[46.1 µM]; Cruzain inh Det: -2.2%

Results for CCn1c2c(c(=O)n3ncc(C(=O)Nc4ccc(F)c(Cl)c4)c13)CN(Cc1ccc(OC)cc1)CC2 ?
Cruzain noTriton: inconclusive; StopGo reporter: -15.1%; Lassa entry inh: -20.9%[46.1 µM]; Cruzain inh Det: -10.1%

Results for CN(CC(=O)N1CC=C(c2ccccc2)CC1)S(=O)(=O)c1ccc2c(c1)c(=O)n(C)c(=O)n2C ?
Cruzain noTriton: inconclusive; StopGo reporter: -15.9%; RE007 growth inh: 0.5%; NS1 inh: -40.4%; SARS PLP yeast: -2.5%; Marburg entry inh: 0.5%; Cruzain inh Det: -0.2%

Results for O=C(NCc1ccccc1)C(=O)c1cn(CC(=O)N2CCOCC2)c2ccccc12 ?
StopGo reporter: -5.2%; RE007 growth inh: 4.5%; NS1 inh: -4.4%; SARS PLP yeast: 1.8%

What do the screens show for `Cc1cc(C)cc(NC(=O)Nc2ccc(N3CCCCC3)cc2)c1`?
StopGo reporter: 15.3%; RE007 growth inh: 1.8%; NS1 inh: -2.0%; SARS PLP yeast: -2.0%; Lassa entry inh: -15.7%[46.1 µM]; Marburg entry inh: inconclusive

What do the screens show for `O=C(Cn1ncc2ccc(Cl)cc21)NCc1ccc(F)cc1`?
Cruzain noTriton: 17.1%; StopGo reporter: 2.0%; Lassa entry inh: 18.7%[46.1 µM]; Marburg entry inh: 3.2%[46.1 µM]; Cruzain inh Det: 0.3%

Results for COC(=O)CCC(=O)OC1(C)C(=O)C=C2C=C(C3CC3)N(CCc3ccccn3)C=C2C1=O (stereo not given) ?
StopGo reporter: -13.5%; RE007 growth inh: -1.5%; NS1 inh: 3.5%; SARS PLP yeast: -2.3%

How did CC1CC(C)CN(CCCNC(=O)c2ccc(CS(=O)(=O)Cc3ccccc3F)o2)C1 (stereo not given) do in these assays?
Cruzain noTriton: -6.7%; StopGo reporter: 6.4%; RE007 growth inh: 9.7%; NS1 inh: -1.9%; SARS PLP yeast: -1.9%; Lassa entry inh: -2.2%; Marburg entry inh: 1.8%; Cruzain inh Det: -1.4%

What do the screens show for `O=C1CCCC2=C1C(c1cccs1)Nc1ccccc1N2` (stereo not given)?
Cruzain noTriton: 0.8%; StopGo reporter: -18.6%; RE007 growth inh: 7.2%; NS1 inh: -2.9%; SARS PLP yeast: 6.3%; Lassa entry inh: 14.7%; Marburg entry inh: inconclusive; Cruzain inh Det: -5.9%

How did O=C(Nc1ccc2cn[nH]c2c1)c1ccccc1F do in these assays?
Cruzain noTriton: -11.1%; StopGo reporter: 8.8%; RE007 growth inh: 2.9%; NS1 inh: -8.6%; SARS PLP yeast: -7.7%; Lassa entry inh: inconclusive; Marburg entry inh: inconclusive; Cruzain inh Det: -0.9%

How did CCOc1ccccc1-c1noc(CCCC(=O)Nc2cccc(C(F)(F)F)c2)n1 do in these assays?
Cruzain noTriton: inconclusive; StopGo reporter: -9.0%; Lassa entry inh: 1.6%[46.1 µM]; Marburg entry inh: inconclusive; Cruzain inh Det: -7.1%

Screening data (PubChem)
